# From PubChem
# FGF22 binding: binders of human FGF22 protein, primary screen, FGF22 synaptogenesis inhibitor project, biophysical, thermal shift, single point; recombinant FGF22 thermal shift, SYPRO orange fluorescence; percent of sucrose octasulfate shift, DMSO zero; actives 1.5% (n = 340,000); Fibroblast growth factor 22 (Homo sapiens), Q9HCT0; calls only at 9.99 µM; AID 651658, 2012;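 active means melting point raised past a set limit in the mean and every replicate; inconclusive means no clear call; three in four hits are not shown here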
# Target sequence (Q9HCT0 whole entry, looked up): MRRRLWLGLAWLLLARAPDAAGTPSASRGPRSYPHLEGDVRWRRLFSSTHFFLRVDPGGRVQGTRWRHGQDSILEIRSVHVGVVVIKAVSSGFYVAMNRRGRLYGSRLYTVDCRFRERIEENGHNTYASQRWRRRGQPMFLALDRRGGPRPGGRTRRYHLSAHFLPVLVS
# MLL AF4-AF9 inh: inhibitors of AF4 peptide binding to AF9, primary screen, biochemical, AlphaScreen, biotin-AF4 peptide, FLAG-AF9, single point. Protein AF-9 (Homo sapiens), P42568. inhibition, % at 10 µM. actives 0.47% (n = 350,000);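 active means every replicate reaching a set inhibition limit, whatever the replicate mean, cut at about 25% in these data; inconclusive means mean inhibition reaches that limit but some replicates miss it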;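 further: 0% = plate neutral control median and 100% = total signal loss; the record names both 10 and 1 µM as test concentration; the first replicate is given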
# Target sequence (P42568 whole entry, looked up): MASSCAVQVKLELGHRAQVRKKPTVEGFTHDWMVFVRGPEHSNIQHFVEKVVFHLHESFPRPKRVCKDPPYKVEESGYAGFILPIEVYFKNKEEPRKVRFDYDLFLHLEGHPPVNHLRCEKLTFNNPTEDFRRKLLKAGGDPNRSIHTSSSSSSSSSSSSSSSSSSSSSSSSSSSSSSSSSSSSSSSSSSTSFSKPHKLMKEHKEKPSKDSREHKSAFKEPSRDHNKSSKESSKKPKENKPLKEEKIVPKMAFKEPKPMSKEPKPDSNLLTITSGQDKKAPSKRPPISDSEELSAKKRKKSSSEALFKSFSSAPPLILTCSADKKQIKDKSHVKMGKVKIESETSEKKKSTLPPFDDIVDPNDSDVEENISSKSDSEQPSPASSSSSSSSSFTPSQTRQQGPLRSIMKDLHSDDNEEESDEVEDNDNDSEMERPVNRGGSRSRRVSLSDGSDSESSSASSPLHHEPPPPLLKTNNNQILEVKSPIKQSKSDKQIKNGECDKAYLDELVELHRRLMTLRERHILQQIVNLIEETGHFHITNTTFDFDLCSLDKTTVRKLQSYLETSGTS
# rRNA inh HTS: reduced GFP signal of wild-type E. coli, primary screen, bacterial rRNA inhibitor project, GFP/RFP fluorescence, OD600, single point; E. coli WT GFP vs humanized-ribosome RFP mutants, 24 h; stronger effect = lower value; DMSO median 0, no signal -100; GFP signal change (wild-type ribosome), % (concentration not given with the values); actives 1.6% (n = 350,000); AID 720706, 2013;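 active means significant combined selectivity score with lowered wild-type GFP, culture density cut under 30%, mutant RFP and density less affected; inactive means any of these conditions unmet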; further: one replicate is shown; some compounds called inactive have numbers as strong as hits
# rRNA inh HTS OD600: also measured in rRNA inh HTS; calls as there; OD600 change, %; measured here: OD600 growth;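 optical density of the mix in the first replicate; 0 = DMSO median and -100 = no signal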
# rRNA inh HTS RFP: recorded beside rRNA inh HTS, whose call it bears; RFP signal change, %; measured here: RFP humanized mutant strains;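 first replicate; 0 = DMSO median and -100 = no signal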
# Numbers without * were called inactive; i = inactive; ? = inconclusive; / = not tested or not shown; & = joins results of further samples. An excerpt, so the mix of outcomes need not match the whole.
# Preview:
SMILES,FGF22 binding,MLL AF4-AF9 inh,rRNA inh HTS,rRNA inh HTS OD600,rRNA inh HTS RFP
Cn1cnc(S(=O)(=O)N2CC[C@@H]3[C@H]2c2cc(C#Cc4ccccc4F)ccc2N[C@@H]3CO)c1,i,-5.7,-12,-6,-0.4
O=C(C[C@@H]1CC[C@@H]2[C@H](COC[C@H](O)CN2S(=O)(=O)c2ccccc2F)O1)NCc1ccccc1Cl,i,1.2,-4,1,-1.4
Cc1ccc(C)c(N2CCN(C3C(=O)Nc4ccccc4-n4nnnc43)CC2)c1 (stereo not given),i,4.7,-4,-24,8.9
CN(C)c1cccc2c(S(=O)(=O)NCC3CCN(C(=O)C(=O)c4cc5ccccc5o4)CC3)cccc12,i,2.4,7,8,1.0

# The listing, repeating the preview:
SMILES,FGF22 binding,MLL AF4-AF9 inh,rRNA inh HTS,rRNA inh HTS OD600,rRNA inh HTS RFP
Cn1cnc(S(=O)(=O)N2CC[C@@H]3[C@H]2c2cc(C#Cc4ccccc4F)ccc2N[C@@H]3CO)c1,i,-5.7,-12,-6,-0.4
O=C(C[C@@H]1CC[C@@H]2[C@H](COC[C@H](O)CN2S(=O)(=O)c2ccccc2F)O1)NCc1ccccc1Cl,i,1.2,-4,1,-1.4
Cc1ccc(C)c(N2CCN(C3C(=O)Nc4ccccc4-n4nnnc43)CC2)c1 (stereo not given),i,4.7,-4,-24,8.9
CN(C)c1cccc2c(S(=O)(=O)NCC3CCN(C(=O)C(=O)c4cc5ccccc5o4)CC3)cccc12,i,2.4,7,8,1.0
O=C(N[C@@H]1CC[C@H](CCn2cc(Cc3ccccc3)nn2)O[C@H]1CO)c1ccccn1,i,-2.0,0,11,2.4
C[C@H]1CN([C@@H](C)CO)S(=O)(=O)c2ccc(-c3cncnc3)cc2O[C@@H]1CN(C)C(=O)c1cccc(F)c1,i,0.0,2,12,-0.9
COCC(=O)Nc1ccc2c(c1)C(=O)N(C)[C@@H]1CC[C@H](CC(=O)NCc3ccccc3)O[C@H]1CO2,i,0.7,-2,5,-1.4
COc1cccc(-c2ccc3c(c2)O[C@H](CN(C)Cc2cccnc2)[C@H](C)CN([C@H](C)CO)S3(=O)=O)c1,i,7.5,-36,-53,2.3
C[C@H](CO)N1C[C@H](C)[C@H](CN(C)C(=O)c2ccc(F)cc2)OCc2ccccc2-c2ccccc2C1=O,i,-4.2,0,-11,0.2
C[C@@H]1CCCCO[C@@H](CN(C)S(C)(=O)=O)[C@H](C)CN([C@H](C)CO)C(=O)c2cc(NC(=O)Nc3ccc(C(F)(F)F)cc3)ccc2O1,i,5.2,-2,-8,1.5
CS(=O)(=O)N1[C@@H]2Cn3c(ccc(C4=CCCC4)c3=O)[C@H]1[C@@H](C(=O)N1CCCCC1)[C@@H]2CO,i,0.3,2,11,-2.3
C[C@@H]1CN([C@H](C)CO)S(=O)(=O)c2ccc(C3=CCCCC3)cc2O[C@@H]1CN(C)C(=O)CN(C)C,i,-3.3,4,7,-0.3
CC1CCC2(CC1)NC(=O)N(CC(=O)NCc1ccco1)C2=O (stereo not given),i,-5.0,20,12,3.1
COC(=O)C[C@@H]1CC[C@@H]2[C@@H](COc3ccc(NC(=O)c4cccc(Cl)c4)cc3C(=O)N2C)O1,i,5.6,0,-8,2.5
COCC(=O)N(C)C[C@@H]1Oc2cc(-c3ccc(OC)cc3)ccc2S(=O)(=O)N([C@@H](C)CO)C[C@H]1C,i,1.0,-5,-3,0.1

# Arranged by the number under rRNA inh HTS RFP (ascending): three from the list above
SMILES | MLL AF4-AF9 inh | rRNA inh HTS | rRNA inh HTS OD600 | rRNA inh HTS RFP
Cn1cnc(S(=O)(=O)N2CC[C@@H]3[C@H]2c2cc(C#Cc4ccccc4F)ccc2N[C@@H]3CO)c1 | -5.7 | -12 | -6 | -0.4
C[C@H](CO)N1C[C@H](C)[C@H](CN(C)C(=O)c2ccc(F)cc2)OCc2ccccc2-c2ccccc2C1=O | -4.2 | 0 | -11 | 0.2
CN(C)c1cccc2c(S(=O)(=O)NCC3CCN(C(=O)C(=O)c4cc5ccccc5o4)CC3)cccc12 | 2.4 | 7 | 8 | 1.0

# Next section
SMILES,FGF22 binding,MLL AF4-AF9 inh,rRNA inh HTS,rRNA inh HTS OD600,rRNA inh HTS RFP
Oc1cccc(CN2CCN(c3ncc(Cc4ccccc4)cn3)CC2)c1,/,-0.7,-9,-32,6.0
CCC(=O)N(C)C[C@H]1Oc2ncc(-c3ccccc3OC)cc2C(=O)N([C@H](C)CO)C[C@H]1C,i,-1.3,-3,2,-1.3
C[C@H](CO)N1C[C@H](C)[C@H](CN(C)C(=O)Nc2cccc(F)c2)Oc2ncc(C#CCN(C)C)cc2C1=O,i,-2.2,8,17,1.2
CCC(=O)N1CC(=O)N2[C@H](CO)[C@H](c3ccc(C#CCC(C)C)cc3)[C@@H]2C1,i,-5.9,3,-3,-1.6
CO[C@@H]1CN(C)C(=O)c2cc(NC(=O)CC(F)(F)F)ccc2OC[C@@H](C)N(C(=O)C2CC2)C[C@@H]1C,i,-2.2,3,-1,0.5
Cc1ccc(S(=O)(=O)N(C)C[C@H]2Oc3cc(-c4cccc(F)c4)ccc3S(=O)(=O)N([C@@H](C)CO)C[C@@H]2C)cc1,i,4.0,-1,-12,0.8
C[C@@H]1CN([C@H](C)CO)C(=O)c2cc(NS(=O)(=O)c3ccc(Cl)cc3)ccc2O[C@@H]1CN(C)Cc1ccc(-c2ccccc2)cc1,i,1.5,0,-20,-2.4
C[C@@H]1CN([C@@H](C)CO)C(=O)CCCn2nncc2CO[C@H]1CN(C)C(=O)c1cc(-c2ccccc2)on1,i,2.4&0.4,-8&0,-5&-6,-0.9&-0.8
O=C(C1CC1)N1CC2(C1)[C@H](c1ccccc1)[C@H](CO)N2Cc1nccs1,i,-1.4,-1,6,-1.6
Cn1c(=O)c2cc(NC(=O)Cc3cccc4ccccc34)ccc2n1-c1ccccc1,i,-3.4,-4,-15,-1.4
C[C@@H]1CN([C@@H](C)CO)C(=O)c2cc(NC(=O)NC3CCCCC3)ccc2O[C@@H]1CN(C)S(=O)(=O)c1cccs1,i,1.0,0,2,-0.7
C[C@H](CO)N1C[C@H](C)[C@H](CN(C)S(=O)(=O)c2ccccc2)OCCCC[C@H](C)Oc2ccc(NC(=O)c3ccncc3)cc2C1=O,i,-14,-5,-5,0.6
COc1cccc(-c2n[nH]nc2C2=CC(=O)C[C@H](c3ccc(F)cc3)C2)c1,i,-2.2,-43,-72,-8.3
CCCNC(=O)C[C@@H]1C[C@@H]2c3cc(NC(=O)C4CCOCC4)ccc3O[C@@H]2[C@@H](CO)O1,i,-0.1,5,6,-1.7
O=C(NC1CCN(Cc2ccccc2)C1)c1cccc(S(=O)(=O)N2CCOCC2)c1 (stereo not given),i,?,0,2,1.1
CO[C@@H]1CN(C)C(=O)c2cc(NC(=O)C3CC3)ccc2OC[C@H](C)N(C(=O)c2cccnc2)C[C@H]1C,i,0.0,5,11,-0.7
Cc1ccccc1-c1cnc2c(c1)C(=O)N([C@@H](C)CO)C[C@H](C)[C@@H](CN(C)C(=O)c1ccncc1)O2,i,0.3,3,7,-3.3
COc1ccc(CN(C)C[C@H]2OCCCC[C@H](C)Oc3ccc(NC(=O)CCCN(C)C)cc3C(=O)N([C@@H](C)CO)C[C@@H]2C)cc1,i,-0.4,4,8,-2.9
C[C@@H]1CN([C@H](C)CO)C(=O)c2cc(C#CC3CCCCC3)cnc2O[C@H]1CN(C)Cc1cccnc1,i,1.5&4.4&-0.4,2&-2,-3&2,5.5&-4.4
COc1ccc(-c2ccc3c(n2)CCCN3Cc2ccccc2C(F)(F)F)cc1,i,-0.5,-13,-14,22
O=C(COc1ccc(CNC[C@H]2O[C@@H](n3ccc(=O)[nH]c3=O)[C@H](O)[C@@H]2O)cc1)Nc1ccccn1,i,1.9,4,2,-3.8
C[C@@H]1CN([C@@H](C)CO)C(=O)c2cc(C#CCN(C)C)cnc2O[C@H]1CN(C)S(C)(=O)=O,i,-1.8,10,3,1.0
CNC[C@@H]1Oc2ncc(C#Cc3ccc(F)cc3)cc2C(=O)N([C@H](C)CO)C[C@@H]1C,i,5.8,-1,1,0.2
CCc1nc2ccc(C(=O)N(C)CCN(C)C)cn2c1N(CC)CCOC,i,-4.0,11,22,0.4
CCC(=O)N1C[C@H](C)[C@@H](OC)CN(C)C(=O)c2cc(NC(=O)Nc3ccccc3)ccc2OC[C@H]1C,i,1.0,-3,0,-0.4
C[C@H]1CN([C@@H](C)CO)C(=O)Cc2cc(N(C)C)ccc2O[C@@H]1CN(C)S(=O)(=O)c1ccc(F)cc1,i,0.6,0,4,0.0
CN(C)C(=O)c1ccc(-c2ccc3c(c2)[C@H]2[C@H](CCN2C(=O)C2CCCC2)[C@H](CO)N3C)cc1,i,0.1,2,-1,1.7
CO[C@@H]1CN(C)C(=O)c2ccc(NS(=O)(=O)c3ccccc3C)cc2OC[C@@H](C)N(S(C)(=O)=O)C[C@H]1C,i,-2.5,3,0,0.3
CC(=NNC(=S)N1CCCCC1)c1cccc(C)n1,i,-0.6,22,11,2.4
CC(C)C[C@H]1COc2c(Cl)cccc2S(=O)(=O)N1,i,3.2,-1,1,-2.5
Cn1c(NCc2cccnc2)nc2cc(-c3cccc(C(F)(F)F)c3)sc2c1=O,i,-1.6,5,2,2.2
CN(C)S(=O)(=O)c1ccc(NC(=O)CN2CCCC2c2ccc3c(c2)OCCCO3)cc1 (stereo not given),i,1.9,-7,-11,1.0
C[C@H]1CN([C@@H](C)CO)C(=O)c2cccc(NS(=O)(=O)c3ccc(Cl)cc3)c2O[C@H]1CN(C)S(=O)(=O)c1cccs1,i,3.1,-7,-11,2.9
C[C@@H]1CCCCO[C@@H](CN(C)S(=O)(=O)c2cn(C)cn2)[C@H](C)CN([C@H](C)CO)C(=O)c2cc(NS(C)(=O)=O)ccc2O1,i,-0.8,1,3,1.0
C[C@@H]1CN([C@@H](C)CO)C(=O)c2cc(NS(=O)(=O)c3ccccc3)ccc2O[C@H]1CN(C)S(=O)(=O)c1cn(C)cn1,i,-3.0,0,-3,-2.4
Cc1cc(NC(=O)C(C)SCC(=O)Nc2ccc(C(=O)OC(C)C)cc2)no1 (stereo not given),i,-9.4,7,4,0.4
C=C1CC(Cn2cc(Br)c(=O)[nH]c2=O)(c2ccc(-c3ccccc3)cc2)OC1=O (stereo not given),i,0.9,-58,-61,-15
COc1ccc(CN(C)C[C@H]2Oc3ccc(NS(=O)(=O)c4ccccc4)cc3CC(=O)N([C@H](C)CO)C[C@@H]2C)cc1,i,-0.8,0,7,2.6
COc1ccc2c3c(n(C)c2c1)[C@H](CO)N(C(=O)CN1CCOCC1)CC31CCN(Cc2ccncc2)CC1,i,2.7,-1,1,-1.3
COc1ccc(NC(=O)Nc2ccc3c(c2)C(=O)N([C@@H](C)CO)C[C@@H](C)[C@H](CN(C)C(=O)CCC(F)(F)F)OCCCC[C@@H](C)O3)cc1,i,0.9,-3,-10,4.2
C[C@@H]1CN([C@@H](C)CO)C(=O)c2cc(NS(=O)(=O)c3cn(C)cn3)ccc2O[C@H]1CN(C)C(=O)Nc1ccccc1,i,-1.5,5,8,-0.7
CN(C)C(=O)c1ccc(-c2ccc3c(c2)[C@H]2[C@H](CCN2C(=O)Cc2ccccn2)[C@H](CO)N3C)cc1,i,-3.2,1,4,-1.4
COc1ccc(-c2cc(NC=O)c3ncc(-c4cnn(C)c4)n3c2)cc1,i,-1.6,5,10,3.7
CC(C)(C)c1ccc(S(=O)(=O)NC(=O)C2(C)CCN2C(=O)C2CC2)cc1 (stereo not given),i,2.6,6,9,1.2
O=C(c1ccc(F)cc1)N1CC(=O)N2[C@H](CO)[C@@H](c3ccc(-c4cccnc4)cc3)[C@H]2C1,i,-1.1,2,13,-0.2
COC(=O)c1ccc2nc(-c3ccc(C)cc3)c(Cc3cccc(F)c3)n2c1,i,-0.7,-21,-30,7.5
COc1ccc2c3c(n(C)c2c1)[C@@H](CO)NCC31CN(S(=O)(=O)c2ccccc2)C1,i,8.4,-4,-12,-1.6
CCNC(=O)[C@H]1[C@H](CO)[C@H]2Cn3c(ccc(-c4cccc(F)c4)c3=O)[C@H]2N1C(=O)Cc1cccnc1,i,2.9,1,6,-0.6
COc1ccccc1-c1csc(C(O)c2ccccc2)n1 (stereo not given),i,-3.6,9,-54,0.9
COc1ccc(N(CC(=O)Nc2ccc3c(c2)OCCO3)S(=O)(=O)c2cccc(C)c2)cc1,i,-10,8,10,3.2
CCc1c(-c2ccccc2F)ncn1CCc1ccccc1OC,i,13,-56,-79,-16
O=S(=O)(Cc1ccccc1)CS(=O)(=O)Cc1ccccc1,i,-6.8,10,11,-2.5
Cc1ccc(S(=O)(=O)Nc2ccc3c(c2)C(=O)N([C@@H](C)CO)C[C@@H](C)[C@@H](CN(C)Cc2ccncc2)O3)cc1,i,-1.0,-1,0,1.6
COCCS(=O)(=O)N(Cc1ccc(Br)cc1)[C@@H](C)C(=O)OC,i,-1.7,-6,-1,1.5
